NOMO-1 viab = STK33 inhibitor candidate reducing NOMO-1 cell viability. NOMO-1 AML viability, CellTiter-Glo luminescence, 72 h. hit rate 7.5% among 37,000. inhibition, % (concentration not given with the values);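 active = most replicates above 80%; inconclusive = exactly half above 80%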;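 also: wells of about 30 µL received 25 nL stock; 0% = median of vehicle wells and 100% = reference inhibitor level; the first replicate is given; inactives centre near 10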
* hit, by the source's call; ? = inconclusive.

C[C@@H]1CN([C@@H](C)CO)C(=O)c2cc(NC(=O)c3ccncc3)ccc2O[C@H]1CN(C)C(=O)Nc1cccc2ccccc12
  NOMO-1 viab = 11.8

COc1ccc(S(=O)(=O)N(C)C[C@H]2Oc3ccc(NC(=O)Cc4ccccc4)cc3C(=O)N([C@H](C)CO)C[C@H]2C)cc1
  NOMO-1 viab = 5.9

O=C(O)c1c(O)cc(OC2OC(CO)C(O)C(O)C2O)cc1/C=C/c1ccccc1 (stereo unspecified)
  NOMO-1 viab = -5.8

C[C@H]1CN([C@@H](C)CO)C(=O)Cc2cc(NC(=O)CCCCCC(=O)Nc3ccccc3N)ccc2O[C@H]1CN(C)S(=O)(=O)c1cn(C)cn1
  NOMO-1 viab = 10.4

COc1ccc(S(=O)(=O)N(C)C[C@@H]2Oc3ccc(NC(=O)Nc4ccccc4)cc3C(=O)N([C@@H](C)CO)C[C@@H]2C)cc1
  NOMO-1 viab = 46.8

CS(=O)(=O)N(CC(=O)NC1CCCCCC1)c1ccc(I)cc1
  NOMO-1 viab = 22.6

CSc1ccccc1NC(=O)Cn1ccc([N+](=O)[O-])n1
  NOMO-1 viab = 10.9

CC(C)NC(=O)Nc1ccc2c(c1)C(=O)N([C@@H](C)CO)C[C@H](C)[C@@H](CN(C)Cc1ccc(C(=O)O)cc1)O2
  NOMO-1 viab = 9.3

CNC[C@@H]1Oc2ccc(NS(=O)(=O)c3cccs3)cc2C(=O)N([C@@H](C)CO)C[C@@H]1C
  NOMO-1 viab = 0.7

Cc1noc(C)c1S(=O)(=O)Nc1ccc2c(c1)C(=O)N([C@@H](C)CO)C[C@H](C)[C@H](CN(C)Cc1ccc(C(=O)Nc3ccccc3N)cc1)O2
  NOMO-1 viab = 104.0*

O=C(CSc1nc2ccc([N+](=O)[O-])cc2s1)Nc1ccc(Br)cc1Cl
  NOMO-1 viab = 17.8

CCCCCCCCC[C@@H](O)CC(=O)CCc1ccc(O)c(OC)c1
  NOMO-1 viab = 91.8*

C[C@@H]1CCCCO[C@H](CN(C)C(=O)c2ccccc2)[C@@H](C)CN([C@H](C)CO)C(=O)c2cc(NC(=O)CCC(F)(F)F)ccc2O1
  NOMO-1 viab = 16.6

CC(C)NC(=O)Nc1ccc2c(c1)C(=O)N([C@H](C)CO)C[C@H](C)[C@@H](CN(C)Cc1ccc(Oc3ccccc3)cc1)O2
  NOMO-1 viab = 25.1

CCCn1c(C)cc(C)c(C#N)c1=O
  NOMO-1 viab = 12.2

C[C@H](CO)N1C[C@H](C)[C@@H](CN(C)Cc2ccccc2)Oc2c(NC(=O)Nc3ccccc3)cccc2C1=O
  NOMO-1 viab = 103.3*

COC(=O)C1=C(C)NC(=O)NC1c1ccccc1OCC(=O)Nc1ccc(C)cc1 (stereo unspecified)
  NOMO-1 viab = 9.2

C[C@H](CO)N1C[C@H](C)[C@H](CN(C)S(=O)(=O)c2cn(C)cn2)Oc2ccc(NC(=O)Cc3ccccc3)cc2CC1=O
  NOMO-1 viab = 10.5

C=CCn1c(NCc2cc(C)ccc2O)nc2ccccc21
  NOMO-1 viab = 8.1

C[C@@H]1CN([C@H](C)CO)C(=O)Cc2cc(NC(=O)Nc3ccc(F)cc3)ccc2O[C@@H]1CN(C)S(=O)(=O)c1ccc(Cl)cc1
  NOMO-1 viab = 5.9

Cc1ccc(S(=O)(=O)Nc2ccc3c(c2)C(=O)N([C@@H](C)CO)C[C@@H](C)[C@@H](CN(C)S(=O)(=O)c2ccc(C)cc2)O3)cc1
  NOMO-1 viab = 26.3

C[C@H]1CN([C@@H](C)CO)C(=O)c2cccc(NC(=O)c3nc4ccccc4s3)c2O[C@H]1CN(C)Cc1ccc(Cl)c(Cl)c1
  NOMO-1 viab = 96.3*

C[C@@H]1CN([C@H](C)CO)C(=O)Cc2cc(NC(=O)NC3CCCCC3)ccc2O[C@@H]1CN(C)Cc1ccccc1
  NOMO-1 viab = 41.5

CCc1c(O)nc(SC(C)C(=O)Nc2cccc(Cl)c2)[nH]c1=O (stereo unspecified)
  NOMO-1 viab = -3.9

COc1ccc(NC(=O)N(C)C[C@H]2Oc3ccc(NC(=O)Nc4ccc(C(F)(F)F)cc4)cc3CC(=O)N([C@@H](C)CO)C[C@H]2C)cc1
  NOMO-1 viab = 124.4*

Another view of part of the listing above:
| SMILES | NOMO-1 viab |
| --- | --- |
| CCCCCCCCC[C@@H](O)CC(=O)CCc1ccc(O)c(OC)c1 | 91.8* |
| C[C@@H]1CCCCO[C@H](CN(C)C(=O)c2ccccc2)[C@@H](C)CN([C@H](C)CO)C(=O)c2cc(NC(=O)CCC(F)(F)F)ccc2O1 | 16.6 |
| CC(C)NC(=O)Nc1ccc2c(c1)C(=O)N([C@H](C)CO)C[C@H](C)[C@@H](CN(C)Cc1ccc(Oc3ccccc3)cc1)O2 | 25.1 |
| CCCn1c(C)cc(C)c(C#N)c1=O | 12.2 |
| C[C@H](CO)N1C[C@H](C)[C@@H](CN(C)Cc2ccccc2)Oc2c(NC(=O)Nc3ccccc3)cccc2C1=O | 103.3* |
| COC(=O)C1=C(C)NC(=O)NC1c1ccccc1OCC(=O)Nc1ccc(C)cc1 (stereo unspecified) | 9.2 |
| C[C@H](CO)N1C[C@H](C)[C@H](CN(C)S(=O)(=O)c2cn(C)cn2)Oc2ccc(NC(=O)Cc3ccccc3)cc2CC1=O | 10.5 |
| C=CCn1c(NCc2cc(C)ccc2O)nc2ccccc21 | 8.1 |
| C[C@@H]1CN([C@H](C)CO)C(=O)Cc2cc(NC(=O)Nc3ccc(F)cc3)ccc2O[C@@H]1CN(C)S(=O)(=O)c1ccc(Cl)cc1 | 5.9 |
| Cc1ccc(S(=O)(=O)Nc2ccc3c(c2)C(=O)N([C@@H](C)CO)C[C@@H](C)[C@@H](CN(C)S(=O)(=O)c2ccc(C)cc2)O3)cc1 | 26.3 |
| C[C@H]1CN([C@@H](C)CO)C(=O)c2cccc(NC(=O)c3nc4ccccc4s3)c2O[C@H]1CN(C)Cc1ccc(Cl)c(Cl)c1 | 96.3* |
| C[C@@H]1CN([C@H](C)CO)C(=O)Cc2cc(NC(=O)NC3CCCCC3)ccc2O[C@@H]1CN(C)Cc1ccccc1 | 41.5 |
| CCc1c(O)nc(SC(C)C(=O)Nc2cccc(Cl)c2)[nH]c1=O (stereo unspecified) | -3.9 |
| COc1ccc(NC(=O)N(C)C[C@H]2Oc3ccc(NC(=O)Nc4ccc(C(F)(F)F)cc4)cc3CC(=O)N([C@@H](C)CO)C[C@H]2C)cc1 | 124.4* |

The main list resumes, starting 3 compounds before the break.
C[C@@H]1CN([C@H](C)CO)C(=O)Cc2cc(NC(=O)NC3CCCCC3)ccc2O[C@@H]1CN(C)Cc1ccccc1
  NOMO-1 viab = 41.5

CCc1c(O)nc(SC(C)C(=O)Nc2cccc(Cl)c2)[nH]c1=O (stereo unspecified)
  NOMO-1 viab = -3.9

COc1ccc(NC(=O)N(C)C[C@H]2Oc3ccc(NC(=O)Nc4ccc(C(F)(F)F)cc4)cc3CC(=O)N([C@@H](C)CO)C[C@H]2C)cc1
  NOMO-1 viab = 124.4*

C[C@H]1CN([C@@H](C)CO)C(=O)c2cccc(NC(=O)Nc3ccc4c(c3)OCO4)c2O[C@@H]1CN(C)S(=O)(=O)c1cccs1
  NOMO-1 viab = 6.0

CCOC(=O)c1c(NC(=O)c2ccc(S(=O)(=O)N3CCOCC3)cc2)sc(C(C)=O)c1C
  NOMO-1 viab = 7.8

CC(C)c1ccc(CNC(=O)CCc2ccccc2)cc1
  NOMO-1 viab = 18.4

C[C@H]1CN([C@@H](C)CO)C(=O)c2cc(NC(=O)C3CCCCC3)ccc2O[C@H]1CN(C)Cc1ccncc1
  NOMO-1 viab = 97.2*

CC(C)NC(=O)N(C)C[C@@H]1Oc2c(NC(=O)Nc3ccc(C(F)(F)F)cc3)cccc2C(=O)N([C@H](C)CO)C[C@H]1C
  NOMO-1 viab = 73.5

C[C@@H]1CN([C@@H](C)CO)C(=O)c2cccc(NC(=O)c3ccncc3)c2O[C@H]1CN(C)C(=O)Nc1ccc(C(F)(F)F)cc1
  NOMO-1 viab = 22.3

C[C@H]1CN([C@@H](C)CO)C(=O)Cc2cc(NC(=O)Nc3cccc4ccccc34)ccc2O[C@H]1CN(C)Cc1ccc(Oc2ccccc2)cc1
  NOMO-1 viab = 49.0

COc1ccc(NC(=O)CNC(=O)c2ccco2)cc1Cl
  NOMO-1 viab = -15.1

COc1ccc(S(=O)(=O)N(C)C[C@H]2Oc3c(NC(=O)c4ccc(-c5nccs5)cc4)cccc3C(=O)N([C@H](C)CO)C[C@H]2C)cc1
  NOMO-1 viab = 18.5

Cc1ccc(S(=O)(=O)Nc2ccc3c(c2)C(=O)N([C@H](C)CO)C[C@H](C)[C@@H](CN(C)C(=O)Nc2ccc(F)cc2)O3)cc1
  NOMO-1 viab = 6.8

C[C@@H]1CCCCO[C@@H](CN(C)C(=O)Nc2ccc(F)cc2)[C@@H](C)CN([C@H](C)CO)C(=O)c2cc(NS(=O)(=O)c3ccc(Cl)cc3)ccc2O1
  NOMO-1 viab = ?

Cc1cc(C)c(S(=O)(=O)NCC(=O)Nc2ccc(I)cc2)c(C)c1
  NOMO-1 viab = 20.4

COc1ccc2c(c1)OCC(Cc1ccc(OC)c(O)c1)C2=O (stereo unspecified)
  NOMO-1 viab = 109.3*

COc1ccc(S(=O)(=O)N(C)C[C@@H]2Oc3c(NC(=O)Nc4c(C)noc4C)cccc3C(=O)N([C@H](C)CO)C[C@H]2C)cc1
  NOMO-1 viab = -15.8

COC(=O)CNc1nc(OC)nc(N(C)C)n1
  NOMO-1 viab = -5.9

Cc1ccc(S(=O)(=O)Nc2cccc3c2O[C@@H](CN(C)Cc2ccc(C(F)(F)F)cc2)[C@@H](C)CN([C@H](C)CO)C3=O)cc1
  NOMO-1 viab = 90.0*

O=[N+]([O-])c1cc(C(F)(F)F)ccc1Sc1nnc(CCCO)n1-c1ccccc1
  NOMO-1 viab = 28.9

Cc1ccc(NC(=O)c2ccc(OC(=O)CCN3C(=O)c4ccccc4C3=O)cc2)cc1
  NOMO-1 viab = -7.0

Cc1cc(C(=O)Nc2cccc3c2O[C@@H](CN(C)C(=O)Nc2ccc(F)cc2)[C@@H](C)CN([C@H](C)CO)C3=O)n(C)n1
  NOMO-1 viab = 25.0

C[C@H](CO)N1C[C@H](C)[C@H](CN(C)C)Oc2c(NS(C)(=O)=O)cccc2C1=O
  NOMO-1 viab = 20.5

Cc1ccccc1NC(=O)c1ccc(C)c(S(=O)(=O)Nc2cc([N+](=O)[O-])ccc2C)c1
  NOMO-1 viab = 11.5

C[C@@H]1CN([C@H](C)CO)C(=O)c2cccc(NC(=O)Nc3ccccc3)c2O[C@H]1CN(C)Cc1ccc(C(=O)O)cc1
  NOMO-1 viab = -2.9

CCC(=O)Nc1ccc(Cl)c(NC(=O)COc2ccccc2C)c1
  NOMO-1 viab = 0.6

C[C@@H]1CN([C@H](C)CO)C(=O)c2cc(NC(=O)Nc3cccc4ccccc34)ccc2O[C@@H]1CN(C)S(C)(=O)=O
  NOMO-1 viab = 17.6

C[C@H](CO)N1C[C@H](C)[C@H](CN(C)S(=O)(=O)c2cccs2)Oc2ccc(NS(=O)(=O)c3cn(C)cn3)cc2C1=O
  NOMO-1 viab = -11.1

C[C@@H]1CN([C@H](C)CO)C(=O)Cc2cc(NS(=O)(=O)c3ccc(Cl)cc3)ccc2O[C@@H]1CN(C)Cc1ccc2c(c1)OCO2
  NOMO-1 viab = 12.8

O=C(CSc1n[nH]c(-c2ccc(Cl)cc2)n1)Nc1c(F)cc(F)cc1Br
  NOMO-1 viab = 3.3

C[C@@H]1CN([C@@H](C)CO)C(=O)Cc2cc(NC(=O)Nc3ccc4c(c3)OCO4)ccc2O[C@@H]1CN(C)Cc1ccccc1
  NOMO-1 viab = 13.0

C[C@H](CO)N1C[C@H](C)[C@H](CN(C)S(=O)(=O)c2ccc(F)cc2)Oc2ccc(NC(=O)Nc3ccc(F)cc3)cc2C1=O
  NOMO-1 viab = 13.8

C[C@@H]1CCCCO[C@H](CN(C)S(=O)(=O)c2ccc(Cl)cc2)[C@@H](C)CN([C@H](C)CO)C(=O)c2cc(NS(=O)(=O)c3cn(C)cn3)ccc2O1
  NOMO-1 viab = 13.9

Cc1noc(C)c1S(=O)(=O)Nc1ccc2c(c1)C(=O)N([C@H](C)CO)C[C@H](C)[C@H](CN(C)S(=O)(=O)c1ccc(Cl)cc1)O2
  NOMO-1 viab = 12.4

O=C(COc1ccc(Cl)cc1Cl)Nc1ccc(-c2nc3ccccc3s2)c(O)c1
  NOMO-1 viab = 37.8

COc1ccc(NC(=O)N(C)C[C@H]2Oc3ccc(NS(=O)(=O)c4ccccc4)cc3C(=O)N([C@H](C)CO)C[C@@H]2C)cc1
  NOMO-1 viab = -4.8

C[C@H](CO)N1C[C@H](C)[C@H](CN(C)S(=O)(=O)c2ccccc2)Oc2ccc(NS(=O)(=O)c3cccs3)cc2C1=O
  NOMO-1 viab = 25.2

Cc1ccc(C(O)(COC(=O)C(C)C)COC(=O)C(C)C)c(O)c1
  NOMO-1 viab = 117.5*

Not all compounds are listed; rates above refer to the full screens.
